# AmpC nodet inh: AmpC beta-lactamase inhibition, detergent-free assay. P00811. AmpC nitrocefin hydrolysis, absorbance 480 nm, no detergent; potencies from a single point are estimates. Potency, µM (series often up to 28.7 µM), without a hit: at the top dose activity change, negative = inhibition. actives 1.8% (n = 71,000). AID 585; active = falling curve, for most hits resting on a single point; inconclusive = weak or doubtful change; inactive = flat or rising curve; note: % of control where 0% means no effect; about half of the hits show no inhibition at the top dose; a quarter of the inactives give rising signals
# Target sequence (P00811 whole entry, looked up): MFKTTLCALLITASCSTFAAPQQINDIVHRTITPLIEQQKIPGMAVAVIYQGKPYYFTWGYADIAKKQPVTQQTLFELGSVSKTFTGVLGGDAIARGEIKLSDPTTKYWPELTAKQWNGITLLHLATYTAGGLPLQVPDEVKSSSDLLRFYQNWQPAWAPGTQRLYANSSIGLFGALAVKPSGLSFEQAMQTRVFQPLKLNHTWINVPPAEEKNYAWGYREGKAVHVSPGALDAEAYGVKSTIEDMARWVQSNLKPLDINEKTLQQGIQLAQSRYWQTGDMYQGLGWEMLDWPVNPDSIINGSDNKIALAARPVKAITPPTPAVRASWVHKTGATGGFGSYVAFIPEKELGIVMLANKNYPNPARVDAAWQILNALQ
#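 AmpC, 20 mM phosphate pH 7.0; 15 min cpd preinc, RT; start with nitrocefin (800 uM stock); A480 kinetic read, 20 s intervals, 4 min. No-enzyme wells = negative control.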
# Numbers without * were called inactive; ? = inconclusive; [ ] = dose if it differs, or a comment. Potency is the fitted concentration of half-maximal effect. Some of the compounds tested (hit frequency here may not be typical).
SMILES,AmpC nodet inh
CO[C@@H]1C[C@H](O[C@H]2[C@@H](C)[C@H](O[C@@H]3O[C@@H](C)C[C@@H](N(C)C)[C@@H]3OC(C)=O)[C@H](C)C[C@]3(CO3)C(=O)[C@H](C)[C@H](OC(C)=O)[C@H](C)[C@H](C)OC(=O)[C@@H]2C)O[C@H](C)[C@@H]1OC(C)=O,93%[12.8 µM]
COc1ccc(N(CC(=O)Nc2ccc(C)c(C)c2)S(=O)(=O)c2c(C)n[nH]c2C)cc1,73%
COC(=O)c1cc2ccsc2n1CC(=O)Nc1ccc(N(C)C)cc1,14%
O=C(COC(=O)Cc1ccsc1)NC1CCCCCC1,16%
CCN(CC)c1ccc(N=Cc2c(O)n(CCC3=CCCCC3)c(=O)[nH]c2=O)cc1,0%
CCN1C(=O)CC(N2CCC(C(=O)N3CCOCC3)CC2)C1=O (stereo not drawn),5%
CCOC(=O)c1nnn(-c2nonc2NC(C)=O)c1C,-8%
O=C(Cc1nn[nH]n1)NCc1ccccc1Cl,-9%
O=C(NCc1ccncc1)c1ccc(Cl)c(S(=O)(=O)N2CCOCC2)c1,6%
CC1NC(=O)NC1CCCCC(=O)O (stereo not drawn),1%
Cc1noc(C)c1C(=O)N1CCC2(CC1)CCN(C(c1ccccc1)c1ccccc1)CC2,130%
CC1CCC(C(=O)NC(C(=O)N2CCN(c3ccccn3)CC2)C(C)C)CC1 (stereo not drawn),68%
c1ccc(-c2nn3c(-c4ccco4)nnc3s2)nc1,-7%
Cc1ccc(S(=O)(=O)N2CCCC2C(=O)NCc2ccco2)cc1 (stereo not drawn),11%
CCN1C(=O)/C(=C\N2CCN(C)CC2)SC1=S,0%
CN1CCN(CCc2ccc(Cl)c(Cl)c2)CC1,25%
COC(=O)CN(C(=O)CSc1nnc(-c2cccc(OC)c2)o1)c1ccc(OC)cc1,79%
O=c1[nH]c(=O)n(-c2cccc(Cl)c2)c(O)c1C=NCCCN1CCOCC1,8%
CC(=O)c1ccc(-c2nc3ccccc3n2C)o1,18%
O=C(Nc1nc2ccccc2n1CCN1CCOCC1)c1cn(-c2ccccc2)nc1-c1ccccc1,126%
Nc1nc(C2C(=O)CCCC2=O)cs1,-4%
O=c1c2[nH]c3ccc(Cl)cc3c2ncn1Cc1ccccn1,1%
COCCn1c(-c2ccccc2)nc2oc3ccccc3c(=O)c2c1=O,-5%
Cc1ccc(N)c([N+](=O)[O-])c1,1%
CCN(CC)C(=O)CSc1nnc(-c2ccc(F)cc2)n1N,-4%
COc1ccc(N2C(=O)CN=C2Nc2cccc(C)c2C)cc1OC,0%
C/C(=C1/SC(N2CCCC2)=NC1=O)c1ccc(Br)cc1,115%
COc1ccc(-c2nc(C#N)c(NCCCN(C)C)o2)cc1OC,-10%
CCOC(=O)C1=C(C)Nc2nnnn2C1c1c[nH]c2ccccc12 (stereo not drawn),-8%
N#CCSc1n[nH]c2nc3c(c(=O)n12)C1(CCCC1)Cc1ccccc1-3,2%
CCCOC(=O)c1ccc(NC(=O)CCC(=O)OCC)cc1,18%
COc1ccc(OC)c(CC(=O)O)c1,-12%
C=CC(=O)OCCO,12%
Cc1c(N(C)CS(=O)(=O)O)c(=O)n(-c2ccccc2)n1C,-11%[12.8 µM]
O=C(c1ccncc1)C12CN3CN(CN(C3)C1)C2,0%
CC1(C)CC(=O)c2sc(NC(=O)CN3CCOCC3)nc2C1,6%
CN1CCCN(C(=O)c2ccc(Cl)c(S(=O)(=O)N(C)c3ccccc3)c2)CC1,18%
COc1ccc(CCN2CC(C(=O)O)CC2=O)cc1 (stereo not drawn),0%
O=C(c1ccco1)N1CCN(c2nc3ccsc3c(=O)s2)CC1,22%
COc1cc(C(=O)N2CCN(C(=O)C3CC3)CC2)cc(OC)c1OC,14%

# Two entries picked at random from those above, as already listed:
SMILES,AmpC nodet inh
O=C(c1ccncc1)C12CN3CN(CN(C3)C1)C2,0%
COc1cc(C(=O)N2CCN(C(=O)C3CC3)CC2)cc(OC)c1OC,14%

# (list continues)
SMILES,AmpC nodet inh
Cn1c(=O)[nH]c(=O)c2c1nc(NCc1ccco1)n2CCCc1ccccc1,-20%
Cc1ccc(C)c(/C(O)=C2\C(=O)C(=O)N(CCCN3CCOCC3)C2c2cccnc2)c1 (stereo not drawn),1%
CCC(Sc1nccn1C)C(=O)Nc1nnc(C)s1 (stereo not drawn),4µM*[single pt active]
CCc1ccccc1NC(=O)N[C@@H](C)C(=O)O,-17%
CSc1cc2c(cc1C(F)(F)F)N(C(=O)Nc1cccnc1)CC2,-1%
N#Cc1ccccc1N=C1CCCN1Cc1ccccc1,2%
CCOC(=O)CC(N)c1ccc2c(c1)OCO2 (stereo not drawn),-14%
Cc1nnc(NC(=O)c2c(F)c(F)c(F)c(F)c2F)s1,0%
NC(=O)c1ccccc1N=Cc1ccccn1,1%
Cn1cccc1C(=O)NC(=O)CSc1nnc(C2CC2)n1-c1ccccc1,2%

# Reformatted: four of the compounds above.
smiles: N#Cc1ccccc1N=C1CCCN1Cc1ccccc1
  AmpC nodet inh: 2%
smiles: CCOC(=O)CC(N)c1ccc2c(c1)OCO2 (stereo not drawn)
  AmpC nodet inh: -14%
smiles: Cc1nnc(NC(=O)c2c(F)c(F)c(F)c(F)c2F)s1
  AmpC nodet inh: 0%
smiles: NC(=O)c1ccccc1N=Cc1ccccn1
  AmpC nodet inh: 1%

# (further entries)
SMILES,AmpC nodet inh
Cc1ccc(CCNC(=O)C2CCN(S(=O)(=O)c3c(C)nn(C)c3C)CC2)cc1,64%
O=C(/C=C\c1ccc(O)c(O)c1)O[C@@H](Cc1ccc(O)c(O)c1)C(=O)O,-18%
CCOC(=O)c1sc2nc(CC(=O)OC)nc(NCCN3CCOCC3)c2c1C,84%
CCn1c(SCC(=O)NCCc2ccc(Cl)cc2)nnc1-c1cccs1,40%
O=C(OCC(=O)N1CCc2ccccc21)C1=COCCO1,-15%
O=C(NC1=NCCS1)Nc1ccccc1,-3%
COc1ccc(S(=O)(=O)N(C)CC(=O)Nc2c(F)cccc2F)cc1,5%
CCC/C=C(\CCC)C(NS(=O)(=O)c1ccc(C(F)(F)F)cc1)c1ccc(-c2ccccc2)cc1 (stereo not drawn),-9%
CCN(C(=O)CN1CCN(C)CC1)c1cccc2ccccc12,4%
COc1ccc(C(=O)N2CCC3(CC2)CCN(C(c2ccccc2)c2ccccc2)CC3)cc1,14%
Cc1csc(=O)n1CCC(=O)O,-4%
COc1ccc(Cn2nnnc2C(c2cc3cc(C)ccc3[nH]c2=O)N2CCOCC2)cc1 (stereo not drawn),82%
Cn1c(Cn2c(=O)sc3ccccc32)nnc1SCc1cccc(F)c1,-2%
O=C1C(C=NCCN2CCOCC2)=C(O)c2ccccc21,2%
COc1ccc(C2C3=C(CC(C)(C)CC3=O)Oc3ncn(CC(C)C)c(=N)c32)cc1 (stereo not drawn),33%
O=C(CSc1nnc2sc3ccccc3n12)NCc1ccco1,-6%
CCOc1ccc(-n2c(=O)cc(N3CCN(c4ccccc4)CC3)[nH]c2=O)cc1,11%
Cc1[nH]c2ccc(-c3nnc(SCC(=O)c4ccccc4F)o3)cc2c1C,65%
Cc1csc2ncc(C(=O)Nc3ccc(C(F)(F)F)cc3)c(=O)n12,3%
CCc1ccc2[nH]c(=O)c(CN(CCN(C)C)C(=O)Nc3ccccc3OC)cc2c1,49%
O=C(Oc1cc2oc(=O)c3c(c2cc1Cl)CCCC3)c1ccco1,-7%
O=C(O)C1C2C=CC(C2)C1C(=O)Nc1ccc2c(c1)OCCO2 (stereo not drawn),-12%
Cc1ccc(Nc2nc(CSc3nnnn3-c3ccccc3)cs2)cc1,?
CCOC(=O)N1CCN(c2cc3[nH]c(=S)[nH]c3cc2F)CC1,-8%
Cc1noc(C)c1COC(=O)COc1ccc2c(C)cc(=O)oc2c1,16%
CCCOC(=O)CCc1n[nH]c(=O)[nH]c1=O,-5%
COC(=O)C1(Cc2ccccc2)C=C2C(=C(C(C)C)C(=O)C2C)CN1 (stereo not drawn),44%
COC(=O)c1ccccc1NC(=O)c1nc2nc(C)cc(C(F)F)n2n1,27%
CCOC(=O)N1CCC(N2C(=O)c3ccccc3C2Nc2ccc(Cl)cn2)CC1 (stereo not drawn),103%
O=C(COC(=O)C1(c2ccccc2F)CCCC1)N1CCN(C(=O)c2ccco2)CC1,103%
Cc1cnc(CNc2nc(-c3ccccc3C(F)(F)F)nc3ccccc23)cn1,36%
COc1ccccc1CNC(=O)c1ccc(CS(=O)(=O)c2ccccc2OC)o1,44%
N#CC1=C(N)Oc2n[nH]c(-c3ccc(F)cc3)c2C1c1cccc(OC(=O)N2CCOCC2)c1 (stereo not drawn),79%
CCOC(=O)C(C)n1cnc2c(oc3ccccc32)c1=O (stereo not drawn),2%
Cc1c(C(=O)O)oc2ccc(S(=O)(=O)NCc3ccc(F)cc3)cc12,-16%
Cc1c(NC(=O)CSc2nc3c(cnn3-c3ccccc3)c(=O)[nH]2)c(=O)n(-c2ccccc2)n1C,13%
CC(C)CN1CCC2(CC1)CCN(C(=O)c1csnn1)CC2,14%
CCOc1ccc(C2/C(=C(\O)c3cccc(OC)c3)C(=O)C(=O)N2c2cc(C)on2)cc1OC (stereo not drawn),-12%
COC(=O)c1[nH]c2ccc(C)cc2c1NC(=O)CN1CCCC(C)(C)C1,63%
O=P(O)(CCCP(=O)(O)CCc1ccccc1)CCc1ccccc1,-5%

# In another format: four of the compounds above.
canonical_smiles: O=C(Cc1nn[nH]n1)NCc1ccccc1Cl
  AmpC nodet inh = -9%

canonical_smiles: O=C(NCc1ccncc1)c1ccc(Cl)c(S(=O)(=O)N2CCOCC2)c1
  AmpC nodet inh = 6%

canonical_smiles: CC1NC(=O)NC1CCCCC(=O)O (stereo not drawn)
  AmpC nodet inh = 1%

canonical_smiles: Cc1noc(C)c1C(=O)N1CCC2(CC1)CCN(C(c1ccccc1)c1ccccc1)CC2
  AmpC nodet inh = 130%

# New compounds follow
SMILES,AmpC nodet inh
Cc1cc2oc(=O)cc(CN3CCN(C/C=C/c4ccccc4)CC3)c2cc1O,6%
COc1ccccc1CNc1n[nH]c(NCc2ccccc2OC)n1,-9%
CCOC(=O)C1CCCN(C(=O)C2CCCN(S(C)(=O)=O)C2)C1 (stereo not drawn),-2%
O=C(c1ccco1)N1CCN(C(=O)c2cnn3c(C(F)(F)F)cc(-c4cccs4)nc23)CC1,65%
O=C(CCNS(=O)(=O)c1cccc2nonc12)N1CCN(c2cccc(Cl)c2)CC1,55%
O=C(CCN1C(=O)c2ccccc2C1=O)NC1=NCCS1,-4%
O=C(NCC1CCCO1)c1cccc(-n2cnnn2)c1 (stereo not drawn),-8%
O=[N+]([O-])c1cccc2c([N+](=O)[O-])cccc12,-2%
COc1ccc(S(=O)(=O)N(C)CC(=O)Nc2ccccc2OC)cc1C,-15%
COc1ccc(-n2c(Cc3cccn3C)nnc2SCC(=O)Nc2ccc(Cl)cc2)cc1,60%
CCOc1ccc(C(C)C)cc1S(=O)(=O)Nc1ccc(Cl)cn1,5%
Cc1ccc2oc(C(=O)NCc3ccc4c(c3)OCO4)c(C)c2c1,1%
CN(C)c1ccc(N=Nc2cccc3ccoc23)cc1,-8%[5.75 µM]
CCOC(=O)CNC(=O)CSc1nnc(-c2ccco2)n1N,-5%
CCOC(=O)c1ccc(S(=O)(=O)N2CCN(CCC#N)CC2)cc1,24%
O=C(CSc1nnc(-c2ccco2)n1Cc1ccccc1)c1ccccc1,33%
COC(=O)c1ccc(NC(=O)CSc2nnc(CNc3ccc(F)cc3)n2C)cc1,33%
CS(=O)(=O)N1CCCC(C(=O)NCc2ccc(F)cc2Cl)C1 (stereo not drawn),-1%

# Assay outcomes: PubChem, National Center for Advancing Translational Sciences (NCATS)
